TRPV1 potentiator: enhances activation of the human vanilloid receptor TRPV1 | AID 540277 | TRPV1-expressing cells, Fluo-8 calcium influx, capsaicin EC20 potentiation; host cell line not named in the record; control for the full effect not named in the record | actives 0.02% (n = 320,000) | potentiation, % at 8.33 µM; active means potentiation above 80%; inconclusive means 30% to 80%; inactive means below 30%; also: 0% is about no effect
Target sequence (Q8NER1 whole entry, looked up): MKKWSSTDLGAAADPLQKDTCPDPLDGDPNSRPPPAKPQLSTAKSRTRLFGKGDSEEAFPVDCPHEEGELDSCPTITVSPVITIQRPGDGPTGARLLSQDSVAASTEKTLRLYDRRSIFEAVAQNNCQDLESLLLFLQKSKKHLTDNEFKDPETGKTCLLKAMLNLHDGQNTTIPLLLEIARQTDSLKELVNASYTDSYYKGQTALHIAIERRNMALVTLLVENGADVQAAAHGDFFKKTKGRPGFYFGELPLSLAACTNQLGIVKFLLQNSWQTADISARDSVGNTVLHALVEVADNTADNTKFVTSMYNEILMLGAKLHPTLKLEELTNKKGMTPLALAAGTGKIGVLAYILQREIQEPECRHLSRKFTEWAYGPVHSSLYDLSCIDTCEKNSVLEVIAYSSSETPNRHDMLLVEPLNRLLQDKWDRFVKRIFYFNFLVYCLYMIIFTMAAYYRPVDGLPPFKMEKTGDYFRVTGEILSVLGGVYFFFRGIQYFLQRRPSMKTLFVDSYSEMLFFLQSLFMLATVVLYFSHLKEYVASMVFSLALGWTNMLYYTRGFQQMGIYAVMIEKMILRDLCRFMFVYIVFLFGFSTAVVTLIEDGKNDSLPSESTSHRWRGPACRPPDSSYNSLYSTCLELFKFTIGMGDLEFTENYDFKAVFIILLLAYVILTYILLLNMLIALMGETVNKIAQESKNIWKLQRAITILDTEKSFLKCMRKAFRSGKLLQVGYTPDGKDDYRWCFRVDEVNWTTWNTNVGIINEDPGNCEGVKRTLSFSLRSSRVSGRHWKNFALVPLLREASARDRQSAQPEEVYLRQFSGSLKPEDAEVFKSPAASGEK
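Cells expressing TRPV1 were dye-loaded with Fluo-8 and read kinetically: 10 s baseline, 3 min after compound (agonist portion), then 2 min after EC20 capsaicin (allosteric enhancer portion). Calcium-bound dye fluorescence at 480/520 nm.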
ClpP mod: qHTS Assay for Activators of ClpP | purified B. subtilis ClpP, FRET peptide cleavage, 20 min | actives 1.9% (n = 340,000) | Potency, µM (highest dose often 57.5 µM), for inactives: at the highest dose activity change, negative = active | AID 651965, 2013; active = well fitted falling curve with a large enough effect; inconclusive = small, poorly fitted or top-dose-only effect; inactive = no such curve, though single readings can be large or run the other way; also: potency is read from the fitted curve at half-maximal effect; the source files actives as falling curves though it sought activators and does not explain the sign; nearly all actives have a fitted effect of over 65% in size; many hits overshoot -100%
Target sequence (P80244 whole entry, looked up): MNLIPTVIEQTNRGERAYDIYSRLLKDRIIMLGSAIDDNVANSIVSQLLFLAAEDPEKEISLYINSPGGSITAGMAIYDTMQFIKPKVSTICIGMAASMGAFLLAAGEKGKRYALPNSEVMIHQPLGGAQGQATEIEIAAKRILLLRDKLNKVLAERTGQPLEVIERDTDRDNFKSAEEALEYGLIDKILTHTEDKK
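Buffer: 100 mM Tris/HCl pH8, 100 mM KCl, 0.05% low protease BSA, 2.5% glycerol, 0.01% Tween-20. ClpP 10 microg/mL final; 20 min RT; delta FRET normalized to ADEP and DMSO controls.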
gsp agonist: gsp mutant agonism; gsp mutant cells, cAMP HTRF, 30 min; control for the full effect not named in the record; AID 624287; Potency, µM (highest dose often 76.9 µM), for inactives: at the top dose activation (cAMP increase), actives largely listed as activators; actives 0.13% (n = 340,000); active = well fitted activation curve with a large enough effect; inconclusive = small, poorly fitted or top-dose-only effect, or another doubt; inactive = no such curve, though single readings can be large or run the other way; cell line not stated here;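 also: phosphodiesterase inhibitor Ro 20-1724 added with compounds to block cAMP breakdown; potency is read from the fitted curve at half-maximal effect; nearly all actives have a fitted effect of over 60% in size; about a fifth of the inactives were tested at one dose only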
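Cells in DMEM/10% FBS with G418 were pretreated with compounds in DMSO plus […] (300 uM stock) for 30 min at 37C. cAMP was measured by HTRF (cAMP-d2 plus anti-cAMP antibody-K) after 30 min at room temperature.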
Menin MLL FP FL: displaces fluorescein MLL peptide from human menin. Fluorescence polarization, fluorescein-MLL peptide displacement from menin. FP activity change, % at 61.4 µM. 290,000 tested, under 10 active. AID 1766; inconclusive = falling polarisation curve, or a change in total fluorescence; inactive = total fluorescence flat and polarisation flat or rising; no compound was filed as active; the % refers to the polarisation; negative = inhibition;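 also: % of control where 0% means no effect; inhibitors lower the polarisation; unlabelled MLL peptide was the positive control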
Sfp PPTase inh: inhibitors of Bacillus subtilis Sfp phosphopantetheinyl transferase | Biochemical Sfp PPTase activity, qHTS | actives 3.5% (n = 310,000) | Q9F4F7 | Potency, µM, for the others: max response, negative = inhibition, usual class: inhibitors; active = well fitted inhibition curve with a large enough effect; inconclusive = small, poorly fitted or top-dose-only effect, or another doubt; inactive = no such curve, though single readings can be large or run the other way;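 also: the enzyme is Sfp with the accession as filed and its product quenches rhodamine fluorescence; potency is read from the fitted curve at half-maximal effect; 0% = enzyme reaction without inhibitor and -100% = no enzyme wells; top concentration of the series not given in the record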
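Reaction rates are the 30-min fluorescence difference (ex 525, em 598 nm) in wells containing 15 nM Sfp, 5 uM rhodamine-CoA and 12.5 uM BHQ-2-YbbR at pH 7.6 with 10 mM MgCl2.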
gsp antagonist: antagonists of gsp mutant (McCune-Albright syndrome); gsp-mutant cells, cAMP HTRF, 30 min; control for the full effect not named in the record; Potency, µM (series often up to 76.9 µM), without a hit: at the top dose activity change, negative = inhibition, hits mostly inhibitors; actives 0.4% (n = 340,000); AID 624288; active = falling curve of any shape with a large fitted effect; inconclusive = falling curve, mostly with a smaller effect; inactive = flat or rising curve; cell line not stated here;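 also: intracellular cAMP measured with PDE inhibitor Ro 20-1724 present during compound exposure; potency is read from the fitted curve at half-maximal effect; % is scaled to controls: 0 for no effect and ±100 for the full control effect; nearly all actives have a fitted effect of over 65% in size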
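Cells, 2000/well, grown 16–24 h in DMEM 10% FBS with 0.5 mg/ml G418, then compounds plus […] (300 uM addition stock), 30 min at 37C. cAMP read by HTRF (cAMP-d2 and anti-cAMP antibody-K in lysis buffer) after 30 min RT.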
TRPML1 blocker: blocks the human TRPML1 channel; TRPML1-inducible cells, Ca2+ dye fluorescence, FDSS; active compounds read low; inhibition of EC80 agonist-evoked calcium signal; Q9GZU1; AID 624415; actives 0.02% (n = 390,000); activity change, negative = inhibition, % (no concentration beside the values); in the data active means activity change below about -50%; inconclusive means about -30% to -50%; inactive means above about -30%;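 also: stimulus is agonist 54-4 at its EC80 concentration; % is scaled to controls: 0 for no effect and ±100 for the full control effect; compound concentration not given in the record; the text of the record puts the active cut at -80%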
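Tet-induced TRPML1-DL cells loaded with Ca8 no-wash calcium dye were read kinetically on FDSS. Compound addition was followed by EC80 agonist 54-4 (4 uM final); inhibition was read over 110 s.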
Starred values were filed as active, the others as inactive; ? = inconclusive; · = no result given; [ ] = another dose, or the depositor's remark. Compounds were not picked by outcome. Share with any hit: about 4.9%.

1: CCOC(=O)c1[nH]c(=O)[nH]c1CSc1nc(C)cc(C)n1
2: N#Cc1ccc(NC(=O)COC(=O)CCc2ccc(S(=O)(=O)N3CCCCC3)cc2)cc1
3: Cc1ccc(-c2csc(NC(=O)C[n+]3cc(-c4ccc(C)cc4)n4c3CCC4)n2)cc1
4: O=C(CN1CCN(c2ccccc2F)CC1)NC(=O)NC1CCCCC1
5: COc1ccc(OC)c(NS(=O)(=O)c2ccc(SC)cc2)c1
6: O=C(O)c1cc(-c2ccccc2)n(-c2ccccc2C(=O)O)n1
Screen / compound no.	1	2	3	4	5	6
TRPV1 potentiator	-20	-4	26	·	-9	12
ClpP mod	0.8%	-3.5%	-0.6%	·	-1.0%	1.4%
gsp agonist	?	9%	12%[15.4 µM]	-35%[inhibitor]	-13%	4%
Menin MLL FP FL	-1.7	0.3	3.1	·	1.8	0.7
Sfp PPTase inh	-22%	33%[activator]	?	·	14%	6%
gsp antagonist	9%	-1%	1%	7%	-2%	7%
TRPML1 blocker	-5	-6	-4	32	7	-1

7: OC(COc1ccc(Br)cc1)CN1CCC(Cc2ccccc2)CC1 (stereo not given)
8: C#CCOCCOCCOCCNc1nc(N2CCN(C(=O)CCCCCCCCCCNC(=O)Cn3cc(CCCCCN)nn3)CC2)nc(N2CCN(C(=O)CCCCCCCCCCNC(=O)[C@@H](CCSC)n3cc(CCO)nn3)CC2)n1
9: CC(C)(C)n1nnnc1CN1C2CCC1CC(NC(=O)Nc1ccccc1)C2 (stereo not given)
10: O=C(NC(Cc1ccccc1)C(=O)NCCc1ccccn1)c1ccccc1 (stereo not given)
11: O=C(Nc1ccc(S(=O)(=O)N2CCOCC2)cc1)c1cccc([N+](=O)[O-])c1
12: CSc1ccc(S(=O)(=O)NCC(=O)OCC(=O)N(C)CC(=O)Nc2ccccc2Cl)cc1[N+](=O)[O-]
Screen / compound no.	7	8	9	10	11	12
TRPV1 potentiator	28	-19	-3	5	-26	2
ClpP mod	-0.4%	-3.0%	0.9%	-1.3%	0.5%	2.9%
gsp agonist	?	·	10%	7%[15.4 µM]	0%[15.4 µM]	-78%[inhibitor]
Menin MLL FP FL	0.9	·	5.0	·	-1.2	·
Sfp PPTase inh	6%	·	6%	1%	13%	·
gsp antagonist	19%	-1%	9%	10%	-23%	-13%
TRPML1 blocker	2	-1	3	18	-4	-15

13: CCOc1ccc(C(=O)NC(=S)Nc2ccc(NC(=O)C(C)C)cc2)cc1[N+](=O)[O-]
14: O=C(/C=C/c1cn(-c2ccccc2)nc1-c1cccnc1)c1ccco1
15: CC(C)Cn1nc(-c2ccccc2)c2ccccc2c1=O
16: CC(C)Oc1ccc(C(CC(=O)NCc2ccco2)c2ccccc2)cc1 (stereo not given)
17: COc1ccc(NC(=O)CN(C)C(=O)c2cc(S(=O)(=O)N3CCCCCC3)ccc2OC)cc1
18: CCCc1cc(Nc2ccc(C)cc2)n2ncnc2n1
Screen / compound no.	13	14	15	16	17	18
TRPV1 potentiator	-7	0	-4	-12	1	-5
ClpP mod	-0.1%	0.2%	-0.8%	-1.9%	·	-1.1%
gsp agonist	0%	-1%[15.4 µM]	-39%[inhibitor]	-5%	3%[15.4 µM]	-6%[15.4 µM]
Menin MLL FP FL	6.9	2.8	-1.8	0.2	·	1.8
Sfp PPTase inh	-4%	-10%	8%	7%	·	-1%
gsp antagonist	10%	-20%	2%	-7%	-2%	2%
TRPML1 blocker	2	7	50	3	-1	-4

19: S=C(Nc1cccnc1)N1CCCCC1
20: CC1(C)CC[C@]2(C(=O)O[C@@H]3O[C@H](CO)[C@@H](O)[C@H](O)[C@H]3O)CC[C@]3(C)C(=CCC4[C@@]5(C)CC[C@H](O[C@@H]6O[C@H](C(=O)O)[C@@H](O[C@H]7OC[C@@H](O)[C@@H](O)[C@@H]7O)[C@H](O)[C@H]6O)C(C)(C)C5CC[C@]43C)[C@@H]2C1 (stereo not given in full)
21: C/C(=N\Nc1nc2ccccc2[nH]1)c1ccc2c(c1)OCO2
22: CCOC(=O)c1c(NC(=O)C2CCCO2)sc(C)c1C (stereo not given)
23: CCOc1ccc(S(=O)(=O)NCCC(=O)NCc2ccccn2)cc1
24: COc1ccc2[nH]cc(CCNC(=O)c3ccc([N+](=O)[O-])cc3)c2c1
Screen / compound no.	19	20	21	22	23	24
TRPV1 potentiator	1	·	24	-18	-4	-19
ClpP mod	·	2.5%	·	-7.2%	-1.6%	-3.5%
gsp agonist	?	·	20%	-15%	18%	-12%[15.4 µM]
Menin MLL FP FL	0.9	·	1.1	0.9	·	1.3
Sfp PPTase inh	16%	·	-14%	-4%	·	22%
gsp antagonist	12%	6%	?	-16%	7%	-6%
TRPML1 blocker	3	2	-12	47	-3	1

25: Cc1ccc(C(=O)Nc2ncnc3sc4c(c23)CCCCC4)cc1
26: COc1ccc(NS(=O)(=O)c2cc3c4c(c2)C(C)C(=O)N4CCC3)cc1 (stereo not given)
27: O=C(CSc1nc(=O)n(Cc2ccccn2)c2c1CCC2)Nc1ccccc1
28: O=C1CC(c2ccco2)CC(O)=C1C=Nc1cc(Cl)ccc1Cl (stereo not given)
29: CN(C)/C=C/C(=C\C(=O)C(F)(F)F)Nc1ccc(C(F)(F)F)cc1
30: COc1ccc(-c2nc3ncccc3o2)cc1NC(=O)c1ccco1
Screen / compound no.	25	26	27	28	29	30
TRPV1 potentiator	16	3	17	-2	-3	7
ClpP mod	-0.8%	11%	-3.1%	?	-0.1%	·
gsp agonist	?	0%	·	0%	-14%	9%
Menin MLL FP FL	-0.9	·	·	3.3	23	·
Sfp PPTase inh	2%	19%	·	50µM*	2%	17%
gsp antagonist	-15%	13%	·	-11%	-22%	-19%
TRPML1 blocker	9	19	22	-17	15	-6

31: CC(C)OCCCN(C)C1CCN(S(=O)(=O)c2ccc(-c3cc(C(F)(F)F)no3)s2)CC1
32: COc1ccc(NC(=O)c2csc(C)c2)cc1OC
33: O=C(NC(C(=O)N/N=C/c1c2ccccc2cc2ccccc12)c1n[nH]c(=O)c2ccccc12)c1ccccc1 (stereo not given)
34: COc1ccc(CN=C2NN=C(c3ccccc3)CS2)cc1
35: CCCCc1nc(SCC(=O)Nc2cccc(Cl)c2)n[nH]1
36: CCn1cc(Br)c(C(=O)Nc2cccc(SC)c2)n1
Screen / compound no.	31	32	33	34	35	36
TRPV1 potentiator	-9	-1	16	-13	1	-15
ClpP mod	-1.5%	1.4%	-5.4%	·	-0.7%	0.5%
gsp agonist	-20%	-11%	-1%	22%	6%[15.4 µM]	14%
Menin MLL FP FL	-3.4	2.6	2.2	?	·	-0.9
Sfp PPTase inh	5%	-2%	4%	45µM*	7%	5%
gsp antagonist	3%	18%	-5%	4%	-19%	-16%
TRPML1 blocker	5	-9	-8	-6	-2	-5

37: CN1CC(=O)N(C)c2nc(Br)n(C)c2C1=O
38: O=C(c1ccco1)N1CCN(S(=O)(=O)c2ccc(Br)cc2)CC1
39: COc1ccc(CNC(=O)C2(CC3CC(c4ccccc4)=NO3)CCN(C(=O)C3(C)CC3)CC2)cc1 (stereo not given)
40: COc1ccc(CCNC(=O)COC(=O)/C=C/c2cccs2)cc1
41: COCCCNC(=O)c1oc2ccc(S(=O)(=O)N(C)C3CCCCC3)cc2c1C
42: COC(=O)C1CC(O)CN1C(=O)NC1CCCCC1 (stereo not given)
Screen / compound no.	37	38	39	40	41	42
TRPV1 potentiator	-9	-5	·	-9	-23	-40
ClpP mod	1.3%	-0.1%	-4.5%	·	-3.5%	·
gsp agonist	14%	0%	10%	-16%[15.4 µM]	2%	-41%[inhibitor]
Menin MLL FP FL	2.3	-6.7	·	3.2	-1.6	0.3
Sfp PPTase inh	7%	11%	·	8%	3%	11%
gsp antagonist	5%	-3%	-5%	2%	-1%	7%
TRPML1 blocker	-2	4	15	-4	-11	17

Entries of single compounds, looked up by structure.
Shown for COC(=O)C1CC(O)CN1C(=O)NC1CCCCC1 (stereo not given) = TRPV1 potentiator = -40; ClpP mod = ·; gsp agonist = -41%[inhibitor]; Menin MLL FP FL = 0.3; Sfp PPTase inh = 11%; gsp antagonist = 7%; TRPML1 blocker = 17
Shown for COCCCNC(=O)c1oc2ccc(S(=O)(=O)N(C)C3CCCCC3)cc2c1C = TRPV1 potentiator = -23; ClpP mod = -3.5%; gsp agonist = 2%; Menin MLL FP FL = -1.6; Sfp PPTase inh = 3%; gsp antagonist = -1%; TRPML1 blocker = -11

Continued:
43: Cc1cccc(C(=O)Nc2ccc(CC(=O)O)cc2)c1
44: CC(C)(C)[C@H]1COC(=O)[C@@H](Cc2ccc(F)cc2)CC/C=C/C[C@@H](CC(=O)N[C@@H](CO)Cc2ccccc2)C(=O)N1
45: CC(NC(=O)CNC(=O)[C@@H]1Cc2ccccc2CN1)c1ccccc1 (stereo not given in full)
46: C(=NN1CCCCCC1)c1ccccc1
47: CC1CCCCC1NC(=O)CCNS(=O)(=O)c1ccc2c(c1)CCC(=O)N2 (stereo not given)
48: O=C(C1=C(O)C(=O)N(CCN2CCOCC2)C1c1ccc(F)cc1)c1cccs1 (stereo not given)
49: Cc1c(S(=O)(=O)N2CCCC(C(=O)O)C2)cnn1C (stereo not given)
50: COc1ccc(NC(=O)c2cccc(Cl)c2)c[n+]1[O-]
51: CCOc1ccccc1C(=O)NC1CC2CCCC(C1)N2C1CC1 (stereo not given)
Screen / compound no.	43	44	45	46	47	48	49	50	51
TRPV1 potentiator	3	·	7	·	13	2	0	26	-1
ClpP mod	0.9%	1.3%	·	-2.4%	1.3%	0.4%	·	-1.7%	-1.9%
gsp agonist	-12%	-1%	-1%	-43%[inhibitor]	11%	29%	?	24%[15.4 µM]	-13%
Menin MLL FP FL	-0.3	·	0.3	·	·	-3.3	-3.6	5.0	-1.3
Sfp PPTase inh	17%	·	2%	·	1%	3%	2%	0%	-5%
gsp antagonist	-2%	-9%	10%	6%	-28%	0%	5%	-8%	1%
TRPML1 blocker	-11	-1	2	11	21	-6	7	-18	15

High-throughput results (PubChem)
